Screens as filed in PubChem BioAssay.
UUG fidelity: modulators of start codon recognition fidelity in yeast; activity score, % at 18.7 µM; actives 0.13% (n = 350,000); S. cerevisiae UUG-firefly luciferase reporter, luminescence/redox ratio;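 active means replicate mean at a twofold rise or more, about +100% in these data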;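 further: firefly luciferase made from a UUG start codon reports start codon fidelity; reporter light over untreated wells divided by growth signal over untreated wells; some hits fall short of that in this replicate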
MT1-MMP act inh: inhibitors of human MT1-MMP activation. actives 0.061% (n = 360,000). HT1080 RFP-PRO-GFP cells, GFP/RFP ratio fluorescence, overnight; percent of plate control window, DMSO zero. P50281. GFP/RFP ratio change, % at 20 µM. AID 651647;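 active means GFP/RFP ratio change of at least 30% with cell ATP level not reduced by more than half and red fluorescence within 50% of control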; further: strong numbers were not always called active
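Test system: HT1080 RFP-PRO-GFP cells; Benchmarks: DMSO and RFP-L50D-GFP cell wells; Timing: cells overnight before dosing, compound overnight, 37 °C, 5% CO2; Compound: one 20 µM compound dose with 1% DMSO; Read-out: GFP/RFP fluorescence ratio.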
Rce1 inhib: blocks yeast Ras-converting enzyme; actives 0.27% (n = 290,000); yeast membranes, quenched prenylated peptide cleavage fluorescence; calls only; AID 2563;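 active means fall in fluorescence gain of 50% or more versus controls, with final raw signal at or below 3038400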;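 further: plate controls were neutral control wells for no effect and wells lacking membranes for full effect; tested at 10 µM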
Target sequence (Q03530 whole entry, looked up): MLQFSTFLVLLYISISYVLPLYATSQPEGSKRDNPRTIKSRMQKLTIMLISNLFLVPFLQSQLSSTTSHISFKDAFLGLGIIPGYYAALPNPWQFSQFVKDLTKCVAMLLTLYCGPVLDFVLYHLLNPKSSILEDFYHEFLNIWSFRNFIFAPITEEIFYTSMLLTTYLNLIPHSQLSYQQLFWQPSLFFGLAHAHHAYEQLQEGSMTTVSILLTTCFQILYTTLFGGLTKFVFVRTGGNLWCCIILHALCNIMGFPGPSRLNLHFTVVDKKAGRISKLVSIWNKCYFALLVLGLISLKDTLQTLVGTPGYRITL
PABP polyA inh: PABP-poly(A) binding inhibition; P11940; PABP-poly(A) RNA binding, fluorescence polarization; inhibition, % at 35 µM; actives 1% (n = 290,000); AID 2014;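 active means 50% or more with normal probe brightness, or confirmed in later tests; about a fifth of its hits are not listed in these tables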;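 further: calls also rest on retests at 20 µM and on dose response follow-up; controls were probe without protein and protein plus probe with vehicle; some compounds called inactive have numbers as strong as hits; many hits fall short of the cut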
eIF4H inh: inhibitors of RNA binding by human eIF4H; actives 0.94% (n = 290,000); eIF4H fluorescence polarization binding assay; AID 2012; Q15056; inhibition, % at 35 µM;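 active means 50% or more with normal probe brightness, or confirmed in later tests; about a fifth of its hits are not listed in these tables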;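 further: calls also rest on retests at 20 µM and on dose response follow-up; 0% = protein and probe with vehicle and 100% = probe without protein; strong numbers were not always called active; many hits fall short of the cut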
CSC inhib: blocks cancer stem cells | inhibition, % at 7.5 µM | cancer stem cell-like cells viability, luminescence | actives 1.1% (n = 300,000);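 active means mean at 75% or more and at least half the replicates too; tested in HMLE shEcad cells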;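 further: 0% = median of negative and 100% = median of positive control wells; the first replicate is given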
Env fusion inh: inhibitors of HIV Env-mediated cell fusion; inhibition, % at 12.3 µM; actives 1.1% (n = 360,000); HeLa-JRFL Env/CEM21 cell fusion, luciferase;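 active means mean replicate inhibition score of at least 50 and every replicate individually at or above 50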;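 further: 0% = plate neutral controls and 100% = maraviroc near 300 nM; one replicate is shown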
MT1-MMP act inh RFP: recorded beside MT1-MMP act inh, whose call it bears; RFP signal change, %; measured here: RFP expression control read;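 0 = vehicle wells; hits needed this value within 50% of zero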
Starred values were filed as active, the others as inactive.

For Cc1ccc(N(CC(=O)NC2CCC(C)CC2)S(=O)(=O)c2cccnc2)cc1 (configuration not stated) the results were UUG fidelity 1, MT1-MMP act inh 2, Rce1 inhib inactive, PABP polyA inh 1, eIF4H inh -5, CSC inhib -14, Env fusion inh 1 and MT1-MMP act inh RFP 4.
`Clc1ccc(-c2csc(-c3ccncc3)n2)cc1` gave UUG fidelity -12, MT1-MMP act inh -2, Rce1 inhib inactive, PABP polyA inh 2, eIF4H inh 2, CSC inhib 0, Env fusion inh -31 and MT1-MMP act inh RFP 0.
Screening Cc1cccc(C(=O)N[C@H](C(=O)Nc2ccc(C)c(S(=O)(=O)N3CCOCC3)c2)C(C)C)c1 returned UUG fidelity 12, MT1-MMP act inh -3, CSC inhib 21, Env fusion inh -37 and MT1-MMP act inh RFP -9.
`O=C(NCc1ccccn1)C1CCCN(S(=O)(=O)c2ccc(Br)cc2)C1` (configuration not stated) gave UUG fidelity -5, MT1-MMP act inh 4, PABP polyA inh 15, eIF4H inh 4, CSC inhib -11 and MT1-MMP act inh RFP 2.
Screening COc1ccccc1NC(=O)c1ccc[n+]([O-])c1 returned UUG fidelity -20, MT1-MMP act inh -3, Rce1 inhib inactive, PABP polyA inh -2, eIF4H inh -6, CSC inhib -1, Env fusion inh -4 and MT1-MMP act inh RFP 1.
COc1ccc(CCNC(=O)C2CC(=O)N(CCc3ccc(C)cc3)C2)cc1OC (configuration not stated) was read as UUG fidelity 2, MT1-MMP act inh -2, Rce1 inhib inactive, PABP polyA inh 3, eIF4H inh 3, CSC inhib -23, Env fusion inh 15 and MT1-MMP act inh RFP 0.
`Cc1[nH]c2ccccc2c1CC#N` gave UUG fidelity -15, MT1-MMP act inh -1, Rce1 inhib inactive, PABP polyA inh 2, eIF4H inh 3, CSC inhib -16, Env fusion inh 4 and MT1-MMP act inh RFP 4.
Screening COc1ccc(C(=O)NCc2ccc(Cl)c(Cl)c2)cc1OC returned UUG fidelity -11, MT1-MMP act inh -12, Rce1 inhib inactive, PABP polyA inh -9, eIF4H inh -13, CSC inhib 46, Env fusion inh 8 and MT1-MMP act inh RFP 0.
Cc1ccc(C(C)C)c(OCCCNCc2cccnc2)c1 was read as MT1-MMP act inh -1, Rce1 inhib inactive, PABP polyA inh -4, eIF4H inh -4, CSC inhib -4, Env fusion inh 14 and MT1-MMP act inh RFP -4.
For CCn1c(CNc2cccc(Cl)c2)nnc1SCc1ccccc1 the results were UUG fidelity -18, MT1-MMP act inh 4, Rce1 inhib inactive, PABP polyA inh -6, eIF4H inh 2, CSC inhib -8 and MT1-MMP act inh RFP -7.
For COCCNC(=O)/C(C#N)=C/c1c(N2CCN(c3ccccc3)CC2)nc2ccccn2c1=O the results were UUG fidelity -1, MT1-MMP act inh -2, Rce1 inhib inactive, PABP polyA inh 4, eIF4H inh 9, CSC inhib -19, Env fusion inh -11 and MT1-MMP act inh RFP 2.
For Cc1ccc(Cn2c(=O)c3ccccc3n3nc(C)cc23)cc1 the results were MT1-MMP act inh -9, Rce1 inhib inactive, PABP polyA inh -4, eIF4H inh -25, CSC inhib 8, Env fusion inh 1 and MT1-MMP act inh RFP -7.
Screening c1ccc(COc2ccc(-c3sc(Nc4ccccc4)n[n+]3-c3ccccc3)cc2)cc1 returned Rce1 inhib inactive, PABP polyA inh 0, eIF4H inh -13 and CSC inhib 18.
Cc1ccc(S(=O)(=O)N2CCCC2C(=O)Oc2ccccc2)cc1 (configuration not stated) was read as UUG fidelity -11, MT1-MMP act inh 5, Rce1 inhib inactive, PABP polyA inh -15, eIF4H inh -7, CSC inhib -7, Env fusion inh 2 and MT1-MMP act inh RFP 1.
`CCOc1cc(NC(=O)c2ccco2)c(OCC)cc1NC(=O)COc1ccccc1` gave MT1-MMP act inh 4, Rce1 inhib inactive, PABP polyA inh -8, eIF4H inh -6, Env fusion inh -21 and MT1-MMP act inh RFP 0.
COc1ccc(/C=C2/N=C(c3cccs3)OC2=O)cc1OC(C)C was read as MT1-MMP act inh 2, Rce1 inhib inactive, PABP polyA inh -3, eIF4H inh 6 and MT1-MMP act inh RFP 7.
For CN(Cc1ccccc1)C(=O)CN1CCN(S(=O)(=O)c2ccccc2F)CC1 the results were UUG fidelity 10, MT1-MMP act inh 3, Env fusion inh 10 and MT1-MMP act inh RFP -3.
`Clc1ccc(CO/N=C2\CCCc3nonc32)c(Cl)c1` gave UUG fidelity -18, MT1-MMP act inh -2, Rce1 inhib inactive, PABP polyA inh 7, eIF4H inh -10, CSC inhib 1, Env fusion inh 7 and MT1-MMP act inh RFP -3.
Screening Cc1cc(NC(=O)CSc2nnc(C)c(=O)n2N)no1 returned UUG fidelity -8, MT1-MMP act inh 0, Rce1 inhib inactive, PABP polyA inh 2, eIF4H inh 3, CSC inhib -12, Env fusion inh -16 and MT1-MMP act inh RFP 1.
Screening Clc1ccc(-c2nnc(-c3ccc(Br)o3)o2)c(Cl)c1 returned UUG fidelity -11, MT1-MMP act inh -2, Rce1 inhib inactive, PABP polyA inh -6, eIF4H inh -4, Env fusion inh -154 and MT1-MMP act inh RFP -3.
Cc1cc(C)c(S(=O)(=O)NCC2CCC(C(=O)NCCCN3CCOCC3)CC2)c(C)c1 (configuration not stated) was read as UUG fidelity -3, MT1-MMP act inh 5, Rce1 inhib inactive, PABP polyA inh 1, eIF4H inh -2 and MT1-MMP act inh RFP 6.
For CCC(CC)NCC(O)COc1ccc(Br)cc1 (configuration not stated) the results were MT1-MMP act inh 7, Rce1 inhib inactive, PABP polyA inh 16, eIF4H inh 1, CSC inhib 2, Env fusion inh -1 and MT1-MMP act inh RFP 1.
`CCOc1ccc(NC(=O)COc2ccc(S(=O)(=O)N3CCCC3)cc2)cc1` gave UUG fidelity -13, MT1-MMP act inh -3, Rce1 inhib inactive, PABP polyA inh 4, eIF4H inh 2, CSC inhib 22, Env fusion inh -7 and MT1-MMP act inh RFP -6.
`COc1ccc(-n2c(SCC(=O)N3CCOCC3)nc3ccccc3c2=O)cc1` gave UUG fidelity -15, MT1-MMP act inh -3, Rce1 inhib inactive, PABP polyA inh 12, eIF4H inh 3, CSC inhib -13 and MT1-MMP act inh RFP 2.
O=C(Cc1ccccc1)Nc1c(C(=O)N2CCOCC2)cnn1-c1ccccc1 was read as UUG fidelity -18, MT1-MMP act inh -8, PABP polyA inh 9, eIF4H inh 5, CSC inhib -16 and MT1-MMP act inh RFP -2.
`Cc1ccc(-c2nc(CSCC(=O)N3CCCC3)c(C)o2)cc1` gave UUG fidelity -20, MT1-MMP act inh 2, Rce1 inhib inactive, PABP polyA inh 1, eIF4H inh 1, CSC inhib -4, Env fusion inh -42 and MT1-MMP act inh RFP 0.
CC(NC(=S)NC(=O)c1cccs1)c1ccccc1 (configuration not stated) was read as MT1-MMP act inh 0, CSC inhib -13, Env fusion inh 11 and MT1-MMP act inh RFP -6.
Screening CC(=O)c1cc(F)ccc1OCC(=O)N1CCN(c2ccc(F)cc2)CC1 returned MT1-MMP act inh 3, PABP polyA inh -2, eIF4H inh 0, CSC inhib 0, Env fusion inh -8 and MT1-MMP act inh RFP -1.
CNC(=O)CCn1nc(-c2ccc(Cl)cc2)c2ccccc2c1=O was read as UUG fidelity -14, MT1-MMP act inh 1, Rce1 inhib inactive, PABP polyA inh -2, eIF4H inh 1, CSC inhib 8 and MT1-MMP act inh RFP -3.
`CCC(=O)NC1CC2CCCC(C1)N2Cc1ccc(C)cc1` (configuration not stated) gave UUG fidelity -5, MT1-MMP act inh 0, Rce1 inhib inactive, PABP polyA inh 6, eIF4H inh 14, CSC inhib -5, Env fusion inh 9 and MT1-MMP act inh RFP 0.
For O=C(Nc1nnc(Cc2ccccc2)s1)C1CCC1 the results were UUG fidelity -13, MT1-MMP act inh 1, Rce1 inhib inactive, PABP polyA inh -17, eIF4H inh -25, CSC inhib 11, Env fusion inh 4 and MT1-MMP act inh RFP 4.
Screening Cc1cc(S(=O)(=O)N2CCCC2)c(C)s1 returned UUG fidelity -7, MT1-MMP act inh 4, Rce1 inhib inactive, PABP polyA inh -6, eIF4H inh -6, CSC inhib 1, Env fusion inh -47 and MT1-MMP act inh RFP 5.
For Cc1ccc(/C=N\NC(=O)CNC(=O)C23CC4CC(CC(C4)C2)C3)o1 the results were UUG fidelity -15, MT1-MMP act inh 2, Rce1 inhib inactive, PABP polyA inh -2, eIF4H inh -2, CSC inhib -1, Env fusion inh 0 and MT1-MMP act inh RFP -1.
For CC(=O)c1cc(C#N)c(N2CCCC2)nc1C the results were MT1-MMP act inh 0, Rce1 inhib inactive, PABP polyA inh -1, eIF4H inh 1, Env fusion inh -5 and MT1-MMP act inh RFP -2.
For Cc1nc2cc(NC(=O)N3CC4(C)CC3CC(C)(C)C4)ccc2n1C (configuration not stated) the results were UUG fidelity -17, MT1-MMP act inh 0, Rce1 inhib inactive, PABP polyA inh -2, eIF4H inh -2, CSC inhib -15, Env fusion inh 17 and MT1-MMP act inh RFP -2.
`Cc1ccc(N2CCN(S(=O)(=O)c3c(C)nc4scc(C)n4c3=O)CC2)c(C)c1` gave UUG fidelity -5, MT1-MMP act inh 2, Rce1 inhib inactive, CSC inhib -17, Env fusion inh 4 and MT1-MMP act inh RFP -4.
Cc1c(NC(=O)N(C)c2ccccc2)c(=O)n(-c2ccccc2)n1C was read as UUG fidelity -21, MT1-MMP act inh 2, Rce1 inhib inactive, PABP polyA inh 8, eIF4H inh -13, CSC inhib -8, Env fusion inh -5 and MT1-MMP act inh RFP 1.
For O=C(O)c1ccc(-n2ncc3c2/C(=C/c2cccc([N+](=O)[O-])c2)CC3)cc1 the results were MT1-MMP act inh 6, Rce1 inhib inactive, PABP polyA inh 12, eIF4H inh 46, CSC inhib -16, Env fusion inh 19 and MT1-MMP act inh RFP -3.
For CCCCn1c(CNC(C)=O)nc2ccccc21 the results were UUG fidelity -4, MT1-MMP act inh 5, Rce1 inhib inactive, PABP polyA inh -3, eIF4H inh -6, CSC inhib -12, Env fusion inh -30 and MT1-MMP act inh RFP 5.
Screening Cc1ccc(-c2cc(N)n(Cc3ccc(Cl)cc3)n2)cc1 returned UUG fidelity -45, MT1-MMP act inh 15, Rce1 inhib inactive, PABP polyA inh -11, eIF4H inh -5, CSC inhib 11 and MT1-MMP act inh RFP -29.
Screening Cc1sc(NC(=O)c2ccco2)c(CN2CCCCC2)c1C returned UUG fidelity -18, MT1-MMP act inh -1, Rce1 inhib inactive, PABP polyA inh 0, eIF4H inh 4, CSC inhib -10, Env fusion inh -12 and MT1-MMP act inh RFP 1.
`O=C(NNC(=O)c1cc(O)c(O)c(O)c1)NC1CCCCC1` gave UUG fidelity -13, MT1-MMP act inh 3, Rce1 inhib inactive, PABP polyA inh 5, eIF4H inh 9, CSC inhib 0 and MT1-MMP act inh RFP 6.
`N#Cc1c(-c2cccs2)nc(SCC(=O)c2ccc(Br)cc2)[nH]c1=O` gave UUG fidelity -17, MT1-MMP act inh -19, Rce1 inhib inactive, PABP polyA inh 11, eIF4H inh 31, CSC inhib 13, Env fusion inh 2 and MT1-MMP act inh RFP 0.

3 compounds picked at random from the list so far:
For Cc1ccc(/C=N\NC(=O)CNC(=O)C23CC4CC(CC(C4)C2)C3)o1 the results were UUG fidelity -15, MT1-MMP act inh 2, Rce1 inhib inactive, PABP polyA inh -2, eIF4H inh -2, CSC inhib -1, Env fusion inh 0 and MT1-MMP act inh RFP -1.
`O=C(NNC(=O)c1cc(O)c(O)c(O)c1)NC1CCCCC1` gave UUG fidelity -13, MT1-MMP act inh 3, Rce1 inhib inactive, PABP polyA inh 5, eIF4H inh 9, CSC inhib 0 and MT1-MMP act inh RFP 6.
For O=C(O)c1ccc(-n2ncc3c2/C(=C/c2cccc([N+](=O)[O-])c2)CC3)cc1 the results were MT1-MMP act inh 6, Rce1 inhib inactive, PABP polyA inh 12, eIF4H inh 46, CSC inhib -16, Env fusion inh 19 and MT1-MMP act inh RFP -3.
